# Screens: PubChem, several laboratories
# AF4-AF9 inh: blocks AF4 peptide binding to human AF9 | P42568 | inhibition, % at 10 µM | AID 651704 | 350,000 compounds, 0.47% hits | AlphaScreen, biotin-AF4 peptide binding to FLAG-AF9;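 active means every replicate reaching a set inhibition limit, whatever the replicate mean, cut at about 25% in these data; inconclusive means mean inhibition reaches that limit but some replicates miss it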;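 further: 0% = plate neutral control median and 100% = total signal loss; the record names both 10 and 1 µM as test concentration; the first replicate is given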
# Target sequence (P42568 whole entry, looked up): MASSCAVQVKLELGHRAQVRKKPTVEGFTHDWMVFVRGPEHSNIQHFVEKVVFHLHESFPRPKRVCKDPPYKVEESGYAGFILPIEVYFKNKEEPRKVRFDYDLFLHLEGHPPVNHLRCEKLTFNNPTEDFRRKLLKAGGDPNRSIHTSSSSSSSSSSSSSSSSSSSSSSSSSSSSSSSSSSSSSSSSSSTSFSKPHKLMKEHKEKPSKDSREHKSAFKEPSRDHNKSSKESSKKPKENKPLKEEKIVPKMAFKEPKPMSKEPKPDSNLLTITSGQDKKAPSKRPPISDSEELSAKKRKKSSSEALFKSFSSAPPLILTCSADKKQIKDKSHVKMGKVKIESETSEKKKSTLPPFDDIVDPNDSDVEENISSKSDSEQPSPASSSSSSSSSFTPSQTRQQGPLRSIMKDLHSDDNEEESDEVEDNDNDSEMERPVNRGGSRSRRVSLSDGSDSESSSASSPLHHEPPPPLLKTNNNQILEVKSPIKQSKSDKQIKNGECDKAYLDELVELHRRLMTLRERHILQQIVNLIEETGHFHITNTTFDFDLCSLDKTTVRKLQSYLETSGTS
# LANA-H2B inh: blocks KSHV LANA binding to histone H2A/H2B; Q9QR71; cell-free LANA-H2A/H2B peptide, fluorescence polarization; inhibition, % (test concentration not listed); 320,000 compounds, 0.6% hits; in the data active means inhibition mostly above about 10%, no sharp cut-off; inactive means mostly below about 6.7%;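 further: stock transfer was 7.5 nL into about 10 µL; 0% = median of vehicle wells and 100% = median of positive control wells; one replicate is shown; the record names a cut of 25% in any replicate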
# T cruzi inh: blocks replication of Trypanosoma cruzi; AID 1885; 300,000 compounds, 1.4% hits; inhibition, % (test concentration not listed); T. cruzi beta-gal in NIH3T3, luminescence, 90 h;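 active means mean inhibition across valid replicates above about 55%, limit read from the data; inconclusive means mean below that limit but half or more replicates reach it; inactive means mean below it, under half of replicates reach it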;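 further: signal also drops with host cell toxicity which is not excluded here; 0% = plate median of DMSO wells and 100% = zero luminescence signal; higher percent means less beta-gal luminescence so fewer parasites; stock transfer was 50 nL into about 50 µL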
# Calb FLC: C. albicans growth modulation with fluconazole; 300,000 compounds, 0.57% hits; growth inhibition, % (test concentration not listed); C. albicans CaCi-2 (fluconazole-resistant clinical isolate) + fluconazole, Alamar Blue growth, 48 h; AID 1979;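 active means most replicates above 75%; inconclusive means exactly half above 75%; inactive means most below 75%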;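 further: all wells also contain fluconazole at 8 µg/ml as a sub-toxic cotreatment; 0% = median of DMSO wells and 100% = median of geldanamycin control wells; wells of about 8 µL received 7.5 nL stock; the first replicate is given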
# RanGTP-Imp inh: disruptors of Ran-importin-beta complex formation – biochemical, FRET, CFP-Ran, YFP-importin-beta, homogeneous, primary screen | inhibition, % (concentration not given with the values) | 300,000 compounds, 1.1% hits | AID 2216 | cell-free CFP-Ran/YFP-importin-beta FRET ratio;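 active means most replicates above 15%; inconclusive means exactly half above 15%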;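 further: 0% = DMSO wells and 100% = Ran loaded with GDP instead of GTP; wells of about 40 µL received 100 nL stock; the first replicate is given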
# A1 inh: inhibitors of the anti-apoptotic protein A1, read as caspase activation | MEF A1-2A-BIM cells, Caspase-Glo 3/7 luminescence, 3 h; percent of clofoctol response, vehicle zero | caspase activation, % (test concentration not listed) | 330,000 compounds, 0.066% hits;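 active means over half of replicate activation scores above 10%, or exactly half above 10 with the replicate mean above 10; inconclusive means replicate mean below 10 yet half the replicates above 10; inactive means over half of replicates below 10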;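 further: wells of about 30 µL received 50 nL stock; many hits fall short of the cut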
# Beta apoptosis: beta cell apoptosis inhibition; INS-1E cytokine-induced death, ATP luminescence, 48 h; percent of positive-control rescue, neutral wells zero; protection from apoptosis, % (concentration not given with the values); 300,000 compounds, 0.8% hits;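 active means all replicates at 75% or more, or half of them and the mean; inconclusive means half reach 75% but not the mean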;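 further: 0% = cytokine-treated negative control wells and 100% = positive control rescue; higher means more ATP so stronger rescue from cytokine killing; wells of about 40 µL received 100 nL stock; the first replicate is given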
# Vif A3G: HIV-1 Vif–A3G interaction blockers – biochemical, TR-FRET, GST-Vif 1-94, biotin-A3G peptide, dose response retest, primary screen (AID 1117319). TR-FRET GST-Vif / biotin-A3G peptide binding; higher % means a stronger effect; test concentration not given here; strong numbers were not always called active. one-dose inhibition, %; IC50 in µM for titrated hits. 260,000 compounds, 0.57% hits;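 active means above the screen mean plus three standard deviations and confirmed in dose response; inconclusive means results disagree or hit not tested in dose response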;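 further: Vif residues 1-94 fused to GST binding biotinylated APOBEC3G peptide 110-148; 0% = full assay without inhibitor and 100% = GST in place of GST-Vif; retest series ran down from 100 µM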
# Starred values were filed as active, the others as inactive; ? = inconclusive; nt = not tested or not shown; & = joins results of further samples.
SMILES,AF4-AF9 inh,LANA-H2B inh,T cruzi inh,Calb FLC,RanGTP-Imp inh,A1 inh,Beta apoptosis,Vif A3G
CC(C)CCn1c(N2CCOCC2)nc2c1c(=O)n(CC(N)=O)c(=O)n2C,nt,0.9,4,6,0.6,0.9,1,-4%
CC(=O)NC(c1cccs1)c1cc([N+](=O)[O-])c2cccnc2c1O (stereo not given),2.3,-5.1,28,81*,-3.6,0.3,90*,?
O=NN(CCc1ccncc1)c1ccc(OCc2ccccc2)cc1,11,5.1,72*,-2,2.6,-0.7,99*,-2%
Cc1c(C#N)c(NC(=O)c2cccc(Cl)c2)n(Cc2ccccc2)c1C,nt,5.6,18,-1,0.1,0.1,3,23%
O=C1c2ccccc2-c2c1nc1c([n+]2[O-])CCCC1,nt,-5.3,-10,nt,2.2,-0.6,-2,?
C=CCOC(=O)C1=C[C@@H](c2csc3ccccc23)[C@H](CCCO)[C@@H](OCC)O1,nt,1.5,-16,7,-2.5,-1.5,4,nt
Cc1cc(C)nc(Sc2nc(Cl)nc(N(c3ccccc3)c3ccccc3)n2)n1,nt,2.0,5,13,-0.2,-0.3,3,?
COc1ccc(CCN(C)C(=S)Nc2cccc(C)c2)cc1OC,4.6,0.7,-11,-1,8.8,-0.6,-7,nt
O=C(Cn1nnc(-c2ccccc2)n1)N=Nc1c(O)[nH]c2ccccc12,nt,-3.3,5,21,0.3,1.7,-3,1%
O=C(Nc1sccc1C(=O)NCc1ccco1)c1cccnc1,nt,-0.6,-2,?,-2.2,-0.2,0,17%
CCOC(=O)N1CCC(NC(=O)c2cccn3c(=O)c4cc(Br)ccc4nc23)CC1,nt,2.1,22,5,5.6,0.8,4,-2%&-3%
O=C1OC(N2CCN(Cc3ccccc3)CC2)c2ccccc21 (stereo not given),nt,-4.1,-5,-13,2.3,0.1,2,-14%
Cc1cc(C)nc(NC(N)=NC2CCCCC2)n1,nt,-2.9,5,?,0.2,0.0,-8,25%
O=C1c2cnc3nc(SCc4ccccc4)nn3c2CC2c3ccccc3CCN12 (stereo not given),nt,-1.4,25,-6,2.8,-1.1,-1,76%
Cn1c(Cn2cnc(Cl)c2Cl)nc2ccccc21,nt,-1.6,-3,0,-0.2,-0.2,1,-9%
Cc1nn(C)c(C)c1S(=O)(=O)N1CCC(C(=O)NC2CCCCC2)CC1,nt,3.9,-17,-16,4.4,-0.3,-2,-3%
Cc1cc(C)n(-c2ccc(C(=O)Nc3ccccn3)cc2)n1,nt,8.7,-1,27,2.8,-4.4,-2,2%
CCc1c(C)nc2c(Br)cccc2c1SCCC#N,-2.5,-4.5,1,-51,29*,0.6,-9,-29%
CCOC(=O)C1CCCN(C(=O)CN2C(=O)c3ccccc3C2=O)C1 (stereo not given),nt,-5.1,-2,-2,-2.0,1.0,-2,-4%
Cn1c(-c2cnn(-c3ccccc3)c2N)n[nH]c1=S,-2.7,-0.7,-9,13,-3.1,-2.2,9,-3%
Cc1cccc(C(=O)NC2CC(C)(C)NC(C)(C)C2)c1,nt,-6.8,nt,0,5.8,0.4,0,-1%
Cc1nn(-c2ccccc2)c(C)c1/C=N/NC(=O)c1cc(-c2cccs2)[nH]n1,1.4,1.6,-48,24,-2.6,0.3,37,6%
C/C(=N\NC(=S)Nc1cccc(C)c1)c1cc2ccccc2o1,5.0,-5.9,44,-23,-0.6,-0.4,17,nt
O=S(=O)(c1cccc(C(F)(F)F)c1)N1CCN(c2cnccn2)CC1,0.4,5.3,9,3,4.3,-0.5,-10,14%
CCn1nnnc1SCC(=O)NC1Cc2ccccc2C1,-0.4,1.9,-5,-5,1.9,1.6,-8,nt
Cc1cc(NC(=O)c2ccc(S(=O)(=O)N3CCOCC3)cc2)nc2c1c(=O)oc1ccccc12,nt,2.5,27,-3,1.0,0.0,13,3%
COc1cc2c(cc1NC(=O)C(C)Sc1ccc(C)cc1)oc1ccccc12 (stereo not given),-20,0.6,24,23,-1.8,0.2,20,22%
O=C(Cn1ncc2ccccc21)N1CCc2ccccc21,-9.3,0.7,-21,0,?,-0.3,-5,-6%
Cc1ccc(-n2ncc3c2CCCC3NC(=O)CCC2=NNC(=O)CC2)cc1C (stereo not given),1.4,-3.0,-2,6,-2.7,0.4,4,nt
O=c1oc2ccccc2c(Nc2ccc3ccccc3c2)c1[N+](=O)[O-],nt,1.1,-10,8,2.6,-0.2,10,-1%
S=C(Nc1ccc(Cl)c(Cl)c1)N1CCN(c2ccccn2)CC1,-1.5,2.5,-5,9,-3.5,0.2,nt,4%
O=c1[nH]c(SCc2c(Cl)cccc2Cl)nc2ccccc12,-1.1,-6.2,0,1,1.0,0.0,12,2%
CCOc1ccc(/C=N/NC(=O)C(O)c2ccccc2)c(O)c1 (stereo not given),-4.6,-4.8,3,38,?,-0.3,45,0%
Cc1cc(C)n2c(SCC(=O)Nc3ccc(F)cc3F)nnc2n1,0.8,-4.8,-9,16,1.8,0.7,-1,-7%
Fc1ccc(CSc2nnc(-c3ccccn3)o2)cc1,3.4,2.9,-1,5,-2.0,-0.6,nt,-6%
CCn1c(SCc2nc3ccccc3c(=O)[nH]2)nnc1C(C)NC(=O)c1ccccc1 (stereo not given),-1.5,-0.1,16,-3,-5.9,-0.8,0,8%
Cn1c(N)c(C(=O)COC(=O)/C=C/c2ccc(Cl)cc2)c(=O)n(C)c1=O,3.8,92*,nt,nt,nt,0.4,-4,2%
CC(CSc1nnnn1-c1ccccc1)Cn1c(N2CCN(C)CC2)nc2c1c(=O)[nH]c(=O)n2C (stereo not given),1.1,-3.0,-5,14,-0.1,0.7,0,nt
Cc1nn(Cc2ccc(C(=O)Nc3ccccc3C(F)(F)F)o2)c(C)c1Br,nt,-0.8,-30,4,1.4,-0.2,-6,15%
COc1ccc(NC(=O)CCCN2C(=O)CN(C)C2=O)c(OC)c1,33*,-2.7,nt,nt,nt,0.6,11,18%
O=C(c1ccc(Cn2c(=O)[nH]c3ccccc3c2=O)cc1)N1CCN(c2ccc(Cl)cc2)CC1,nt,3.8,42,41,-14,0.6,24,-1%
CC(=O)Nc1ccc(OC(=O)c2cccnc2)cc1,nt,-1.4,-7,-13,?,0.7,1,?
COc1ccc(/C=C/c2nnc(NC(C)=O)s2)cc1,-0.1,-0.5,-23,5,-2.6,-6.7,nt,-5%
NC(=O)C1=C[C@H](C2CCCCC2)C[C@H](OCc2ccc(CO)cc2)O1,-13&-34,-2.9,-14,0,1.4,-1.3,-9,-8%
CC(=O)c1ccc(S(=O)(=O)N2CCC3(CC2)OCCO3)cc1,-21,-2.1,4,1,1.3,1.5,1,-3%

# Pulled by structure from above (5):
SMILES,AF4-AF9 inh,LANA-H2B inh,T cruzi inh,Calb FLC,RanGTP-Imp inh,A1 inh,Beta apoptosis,Vif A3G
COc1ccc(/C=C/c2nnc(NC(C)=O)s2)cc1,-0.1,-0.5,-23,5,-2.6,-6.7,nt,-5%
CCOc1ccc(/C=N/NC(=O)C(O)c2ccccc2)c(O)c1 (stereo not given),-4.6,-4.8,3,38,?,-0.3,45,0%
Cc1cc(C)n2c(SCC(=O)Nc3ccc(F)cc3F)nnc2n1,0.8,-4.8,-9,16,1.8,0.7,-1,-7%
S=C(Nc1ccc(Cl)c(Cl)c1)N1CCN(c2ccccn2)CC1,-1.5,2.5,-5,9,-3.5,0.2,nt,4%
COc1ccc(NC(=O)CCCN2C(=O)CN(C)C2=O)c(OC)c1,33*,-2.7,nt,nt,nt,0.6,11,18%

# The listing continues.
SMILES,AF4-AF9 inh,LANA-H2B inh,T cruzi inh,Calb FLC,RanGTP-Imp inh,A1 inh,Beta apoptosis,Vif A3G
O=C(CN1C(=O)c2ccc([N+](=O)[O-])cc2C1=O)NCCC1=CCCCC1,-1.2,2.1,-9,4,nt,1.0,-10,0%
O=C(NC(=S)NC12CC3CC(CC(C3)C1)C2)c1ccc(F)cc1,-6.8,2.6,nt,nt,nt,0.1,-1,nt
CCOC(=O)N1CCC(NC(=O)c2oc3c(c2C)-c2[nH]ncc2CC3)CC1,nt,1.5,12,-6,0.1,0.0,-3,6%
O=C(Nc1ccc(C(=O)O)cc1)/C(=C\c1ccc(F)cc1)NC(=O)c1ccco1,-6.4,-4.8,-7,-10,2.5,-0.2,-11,nt
O=C(CCn1c(=S)[nH]c2ccccc2c1=O)NCCSCc1ccccc1,-2.3,1.2,0,-3,-3.9,-0.5,11,-5%
CN(C)c1ccc(NC(=O)CCCCCn2nnc3ccccc3c2=O)cc1,0.2,-2.2,14,-8,-4.1,0.2,10,-11%
CC(Sc1cccc[n+]1[O-])C(=O)Nc1cc(Cl)c(Cl)cc1Cl (stereo not given),3.8,1.1,nt,nt,nt,0.2,-3,-5%
COc1ccc2c(c1OC)C(=O)N(c1ccc(O)cc1)C2,-9.3,-5.0,5,3,-1.7,-3.3,nt,nt
CCCCCOc1ccc(C(=O)NCCC(=O)NCCCC(=O)OCC)cc1,2.2,-0.7,3,3,-2.6,0.0,-7,nt
CC(C)(C)OC(=O)N[C@@H](COCc1ccccc1)C(=O)N[C@@H](CO)[C@H](O)[C@@H]1C[C@@H]1C(=O)NC1CCCCC1,-1.1,0.6,1,6,-2.2,0.9,-4,nt
COCCn1c(SCC(=O)Nc2ccc(Cl)c(S(=O)(=O)N(C)C)c2)nc2ccccc21,nt,-1.3,-5,-15,3.5,-0.5,7,1%
Cc1ccc2cc3cc(C(=O)N4CCN(C(=O)c5ccco5)CC4)sc3nc2c1,nt,-7.6,-5,6,-7.9,-0.8,nt,-4%
CC(=O)Nc1ccc(N2CCN(Cc3ccccc3F)CC2)cc1,nt,4.7,5,-40,-3.1,-0.3,0,7%
Cc1ccc(C(=O)C2=C(O)C(=O)N(Cc3cccnc3)C2c2ccc(Br)cc2)o1 (stereo not given),0.7,-3.8,-5,20,0.4,0.3,nt,0%
CC(CN(C(N)=O)c1ccccc1O)C(=O)O (stereo not given),nt,-3.5,1,-6,-0.3,0.1,nt,17%
CCCCc1nnc(NC(=O)C=C(C)C)s1,nt,2.6,-5,-7,2.4,-0.1,-13,23%
COc1ccc(NC(=O)CN(C)C(=O)Cc2ccsc2)cc1,0.9,-4.3,0,-3,3.0,0.2,5,nt
C#CCNC(=O)[C@H](Cc1ccc(C(=O)c2ccccc2)cc1)NC(=O)OC(C)(C)C,-1.6,1.2,-11,23,4.0,0.1,-3,nt
NC(=O)Cn1cnc2c(nnn2-c2ccc(F)cc2)c1=O,1.0,2.6,-3,-3,-2.4,-0.1,0,-2%
Cc1cc(C)nc(SCC(=O)N/N=C/c2cccc([N+](=O)[O-])c2)n1,-7.8,nt,-28,-14,5.7,0.0,3,nt
Cc1ccc2[nH]c(C(=O)Nc3ccc(F)cc3)cc2c1,-15,-0.9,3,7,2.1,0.1,12,nt
Oc1ccc2[nH]ccc2c1,nt,0.7,-9,14,-3.1,0.1,-4,31%
CCOC(=O)CCn1nc(-c2ccc(Cl)cc2)cc1N,nt,-24,0,1,0.7,-2.0,3,4%
O=C1CCC/C1=C/Nc1ccc2c(c1)OCO2,nt,3.7,1,-2,-4.4,0.0,4,2.1µM*
